Six1-Eya2 inh: blocks human Six1 binding to Eya2. AID 651725. activity change, % (no concentration beside the values). actives 0.56% (n = 360,000). AlphaScreen GST-Six1/His-Eya2 binding, biochemical; hits give low values; control for the full effect not named in the record. Q15475+O00167; in the data active = activity change below about -65%; inconclusive = about -30% to -65%; inactive = above about -30%; also: % is scaled to controls: 0 for no effect and ±100 for the full control effect; compound concentration not given in the record
Target sequence (O00167 whole entry, looked up): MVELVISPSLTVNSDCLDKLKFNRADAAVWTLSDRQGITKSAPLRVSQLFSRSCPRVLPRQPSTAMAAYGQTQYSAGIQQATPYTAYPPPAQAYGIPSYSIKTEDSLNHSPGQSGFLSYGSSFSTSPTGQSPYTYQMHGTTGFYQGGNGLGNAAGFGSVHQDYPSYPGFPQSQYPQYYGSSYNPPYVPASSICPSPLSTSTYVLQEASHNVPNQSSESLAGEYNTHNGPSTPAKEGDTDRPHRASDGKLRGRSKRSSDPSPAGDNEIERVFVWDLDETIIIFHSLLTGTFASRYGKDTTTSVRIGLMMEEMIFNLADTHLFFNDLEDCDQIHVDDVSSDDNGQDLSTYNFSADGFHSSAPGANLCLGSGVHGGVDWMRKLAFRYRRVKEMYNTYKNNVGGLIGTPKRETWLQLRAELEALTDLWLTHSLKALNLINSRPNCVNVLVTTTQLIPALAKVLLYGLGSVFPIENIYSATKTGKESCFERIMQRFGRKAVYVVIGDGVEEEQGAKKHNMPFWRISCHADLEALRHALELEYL
Target sequence (Q15475 whole entry, looked up): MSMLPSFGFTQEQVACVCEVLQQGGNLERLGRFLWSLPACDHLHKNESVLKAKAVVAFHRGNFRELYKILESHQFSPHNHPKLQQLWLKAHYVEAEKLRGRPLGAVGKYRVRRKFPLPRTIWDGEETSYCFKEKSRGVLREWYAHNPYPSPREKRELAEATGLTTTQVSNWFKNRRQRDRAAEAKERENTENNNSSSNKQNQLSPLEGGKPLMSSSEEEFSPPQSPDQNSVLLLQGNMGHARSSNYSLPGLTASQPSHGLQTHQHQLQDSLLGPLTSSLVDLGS
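AlphaScreen luminescence read after one hour at 37 °C in darkness. Pin-transferred compounds met GST-Six1 and His-Eya2 protein (5X stock 250 nM/500 nM) plus glutathione donor and Ni-chelate acceptor beads (5X, 50 ug/mL).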
TRPV1 PAM: enhances activation of the human vanilloid receptor TRPV1; Q8NER1; TRPV1-expressing cells, Fluo-8 calcium influx, capsaicin EC20 potentiation; host cell line not named in the record; control for the full effect not named in the record; potentiation, % at 8.33 µM; actives 0.02% (n = 320,000); active means potentiation above 80%; inconclusive means 30% to 80%; inactive means below 30%; also: 0% is about no effect
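TRPV1-expressing cells were cultured overnight at 35.5C and loaded with Fluo-8 calcium dye for 40 to 90 min at room temperature. After a 10 s baseline, compound was added and calcium influx was read kinetically for 3 min (ex 480/em 520 nm).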
CtBP-E1A blk: inhibitors of CtBP/E1A interaction; activity change, % (test concentration not listed); AID 651724; AlphaScreen GST-E1A/His-CtBP binding, 1536-well; hits give low values; control for the full effect not named in the record; actives 0.49% (n = 340,000); in the data active means activity change below about -65%; inconclusive means about -30% to -65%; inactive means above about -30%; also: % is scaled to controls: 0 for no effect and ±100 for the full control effect; compound concentration not given in the record
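GST-E1A and His-tagged CtBP (125 nM each as 5X stock) were preincubated with pin-transferred compound for 2 h at 37 °C in the dark, then glutathione donor and nickel acceptor beads were added for 1 h before AlphaScreen reading.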
TRPML1 ag: activates the human TRPML1 channel | TRPML1-expressing cells, Ca2+ dye fluorescence, FDSS; host cell line not named in the record; reference of the full effect not given here | activation, % (concentration not given with the values) | actives 0.12% (n = 410,000); in the data active = activation above about 50%; inconclusive = about 30% to 50%; inactive = below about 30%; also: 0% is about no effect; the text of the record puts the active cut at 80%
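Calcium fluorescence on an FDSS kinetic reader gave the read-out. Tet-induced TRPML1-DL cells were plated overnight, dye-loaded (Ca8 with quencher, 45-90 min, room temperature, dark), then read 110 s after compound addition, and again 110 s after 4uM final 54-4 (EC80).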
D2 potentiator: positive allosteric modulators of human D2 dopamine receptor. actives 0.23% (n = 360,000). potentiation, % (concentration not given with the values). DiscoveRx D2 beta-arrestin cells, luminescence, 90 min; 100% = 57 uM dopamine signal. P14416; active = potentiation of 50% or more; inconclusive = 30% to 50%; inactive = 30% or less;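 also: compound concentration not given in the record; tested on top of an EC20 dose of dopamine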
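D2 cells co-treated with compound plus 50 nM dopamine (EC20) for 90 min at 37 deg C to detect potentiation. Beta-arrestin recruitment was read as enzyme-fragment luminescence after 1 h at ambient temperature. Full response was set by 57 uM dopamine.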
TRPML1 blocker: human mucolipin-1 channel inhibition | Q9GZU1 | TRPML1-inducible cells, Ca2+ dye fluorescence, FDSS; hits give low values; inhibition of EC80 agonist-evoked calcium signal | activity change, negative = inhibition, % (no concentration beside the values) | actives 0.02% (n = 390,000) | AID 624415; in the data active means activity change below about -50%; inconclusive means about -30% to -50%; inactive means above about -30%;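 also: stimulus is agonist 54-4 at its EC80 concentration; % is scaled to controls: 0 for no effect and ±100 for the full control effect; compound concentration not given in the record; the text of the record puts the active cut at -80%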
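Tet-induced TRPML1-DL cells loaded with Ca8 no-wash calcium dye were read kinetically on FDSS. Compound addition was followed by EC80 agonist 54-4 (4 uM final); inhibition was read over 110 s.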
Starred values were filed as active, the others as inactive; ? = inconclusive; . = not tested or not shown.

structure | D2 potentiator | TRPML1 ag | TRPML1 blocker | TRPV1 PAM | Six1-Eya2 inh | CtBP-E1A blk
O=C(Nc1cccc(Cl)c1)C1C2CCC3C(CCC21)C3(Cl)Cl (stereo unspecified) | -20.9 | 0.6 | 0.9 | -20.4 | 13.7 | 3.5
O=C(NCC(=O)N(Cc1ccc(F)cc1)C(C(=O)NC1CCCC1)c1ccco1)c1ccco1 (stereo unspecified) | -3.3 | -1.5 | 16.1 | 11.0 | 6.8 | 6.4
Cc1noc(C)c1C(=O)OCC(=O)N(C)C1CCS(=O)(=O)C1 (stereo unspecified) | -1.8 | -0.1 | -16.7 | -1.9 | 7.7 | 15.1
COc1ccc(NC(=O)C(c2ccc(C)cc2)N(C)C(=O)c2cnccn2)cc1 (stereo unspecified) | -21.9 | 0.0 | -4.9 | 1.8 | -1.2 | -1.4
CC(C)CC(=O)Nc1ccc(C(=O)CN2CCC(C)CC2)cc1 | -11.4 | -0.8 | -6.4 | 3.9 | -0.8 | 4.5
COc1ccc(CN(C(=O)c2nsc(Cl)c2Cl)C(C(=O)NC2CCCCC2)c2ccc(OC)cc2)cc1 (stereo unspecified) | -18.2 | -0.3 | 11.1 | 8.2 | -9.4 | -3.1
Cc1ccc(C(=O)NCCCNc2ccccc2[N+](=O)[O-])cc1 | -17.8 | 1.2 | -10.0 | 3.2 | -12.4 | -4.3
CCC1(C)Cc2c(sc3[nH]c(=O)[nH]c(=O)c23)CS1 (stereo unspecified) | -5.2 | 4.9 | -2.7 | 4.6 | -4.0 | -3.6
COc1ccccc1C(=O)Nc1ccc2c(c1)nc1n2CCN(C2CCCCC2)C1 | -3.4 | 0.0 | 1.8 | 6.9 | -6.7 | -9.8
COc1cc2cc(C(c3nnnn3C3CCCC3)N(C)C3CCCCC3)c(=O)[nH]c2cc1OC (stereo unspecified) | -5.8 | 0.9 | 11.7 | 17.3 | -2.5 | -3.4
CCc1ccc2c(c1)C1(SC(NC(C)=O)=NN1C(C)=O)C(=O)N2C(C)C (stereo unspecified) | 3.9 | 1.4 | -13.3 | -7.8 | 5.7 | 6.8
CC(C)(C)C(=O)Nc1ccc(Cc2ccncc2)cc1 | -5.6 | -0.5 | -16.8 | . | 1.4 | 2.0
CCOc1cc(/C=N/NC(=O)C(=O)NC)cc(Br)c1O | -8.1 | 0.2 | 29.8 | 4.9 | 5.1 | -16.0
Cc1ccccc1-n1nc(C(=O)O)c(C)c(C#N)c1=O | 18.9 | 0.3 | 0.6 | 14.9 | 1.9 | 3.4
Nc1[nH]c(C(=O)c2ccccc2)c(-c2ccc(Cl)cc2)c1C(=O)NCc1ccccc1 | . | 0.2 | . | . | 7.7 | 1.4
CN(CCCCN1CCOCC1)Cc1nc(-c2ccc3c(c2)OCO3)no1 | -11.8 | 0.4 | 10.7 | 3.7 | 2.8 | -13.2
Cc1cc(C)nc(NS(=O)(=O)c2ccc(NC(=O)Cc3ccccc3F)cc2)n1 | 1.8 | -0.9 | 2.7 | -3.4 | -0.1 | -18.1
O=C(COC(=O)c1cc([N+](=O)[O-])ccc1Cl)NCCc1ccccc1 | -16.6 | 1.4 | 4.7 | 19.5 | -0.3 | -0.3
Cc1ccc(S(=O)(=O)N2CCOCC2)cc1C(=O)OCc1nnc(-c2ccccc2)o1 | -6.1 | 0.9 | -20.6 | 1.4 | 2.0 | -0.4
Cc1ccc(NC(=O)COC(=O)C2CSC3(C)CCC(=O)N23)c(C)c1 (stereo unspecified) | -4.5 | 0.3 | 0.0 | 3.5 | 9.9 | -29.1

Single values from above.
`Nc1[nH]c(C(=O)c2ccccc2)c(-c2ccc(Cl)cc2)c1C(=O)NCc1ccccc1` @ Six1-Eya2 inh = 7.7
`O=C(COC(=O)c1cc([N+](=O)[O-])ccc1Cl)NCCc1ccccc1` @ TRPML1 blocker = 4.7

Single records, as listed above. Order of values: D2 potentiator, TRPML1 ag, TRPML1 blocker, TRPV1 PAM, Six1-Eya2 inh, CtBP-E1A blk
Entry for O=C(Nc1cccc(Cl)c1)C1C2CCC3C(CCC21)C3(Cl)Cl (stereo unspecified) → -20.9, 0.6, 0.9, -20.4, 13.7, 3.5
Entry for Cc1ccc(NC(=O)COC(=O)C2CSC3(C)CCC(=O)N23)c(C)c1 (stereo unspecified) → -4.5, 0.3, 0.0, 3.5, 9.9, -29.1

Following part:
structure | D2 potentiator | TRPML1 ag | TRPML1 blocker | TRPV1 PAM | Six1-Eya2 inh | CtBP-E1A blk
O=C(c1cccc(C(=O)N2CCN(c3ncccn3)CC2)c1)N1CCN(c2ncccn2)CC1 | 1.4 | -1.2 | -0.5 | 2.7 | 6.9 | 8.6
Cc1ccc(N(C(=O)c2ccc(Br)o2)C2C=CS(=O)(=O)C2)cc1 (stereo unspecified) | -8.0 | -0.1 | -6.7 | -0.4 | -3.3 | 4.2
C/C(N)=C(/C#N)C(=O)COC(=O)c1ccc(C#N)cc1 | -11.8 | 0.5 | 8.3 | -0.2 | -10.0 | 0.0
CCOC(=O)CSc1nc(C)cc(C)n1 | 8.3 | 0.8 | -16.1 | 11.0 | 5.0 | 4.0
CC(C)(C)NC(=O)c1cccc(NC(=O)Cc2ccc(Br)cc2)c1 | -5.7 | -0.8 | 25.3 | -12.9 | 0.2 | 0.1
O=C(Nc1ccc(Cl)c(Cl)c1)c1ccc(Cn2c(=O)[nH]c3ccsc3c2=O)cc1 | -0.5 | 0.1 | -1.8 | 7.8 | -2.2 | 7.2
S=C1CSc2ccccc2N1 | -6.4 | 0.5 | -3.5 | 9.6 | -21.4 | -16.5
N#C/C(=N/Nc1ccc(OC(F)(F)F)cc1)C(N)=S | -33.4 | -0.4 | 28.8 | -3.3 | -14.2 | .
CCOc1ccc2nc(NC(=O)CN3C(=O)NC4(CCCC4)C3=O)sc2c1 | -7.8 | -0.5 | -4.4 | 2.7 | 3.5 | -4.7
Cc1cn([C@H]2C[C@H](O)[C@@H](CNCc3cccn3-c3ccncc3)O2)c(=O)[nH]c1=O | 4.4 | 0.5 | 0.8 | . | -3.8 | 6.0
CC(Cc1ccccn1)NC(=O)CCc1nnc(C2CCCCC2)o1 (stereo unspecified) | -5.2 | -0.1 | -16.1 | -3.0 | 4.4 | 8.0
CCCS(=O)(=O)Nc1cccc(-c2cn3c(n2)SCC3)c1 | -14.7 | 0.5 | 14.1 | -4.5 | 3.5 | .
CCc1ccc2nc(/N=C(\N)NC(=O)c3ccccc3)nc(C)c2c1 | -4.8 | 0.4 | -10.3 | -5.8 | 0.1 | -2.6
CN(C)C(=S)Nc1ccc2c(c1)OCO2 | -9.3 | 1.4 | 10.9 | -2.2 | -4.6 | 7.6
Cc1noc(C)c1S(=O)(=O)N(C)C[C@H]1Oc2ccc(NC(=O)C3CC3)cc2C(=O)N([C@H](C)CO)C[C@@H]1C | -4.1 | -0.3 | 3.9 | . | 0.6 | 7.0
CCOc1ccccc1NC(=O)C(c1ccccc1)N1CCN(CC(=O)N2CCOCC2)CC1 (stereo unspecified) | -2.0 | -0.2 | -3.8 | -14.8 | 1.0 | 1.2
Cn1cccc1-c1nc2ccccc2n1Cc1ccccc1 | ? | 0.1 | 6.9 | -11.3 | ? | -28.6
Fc1ccc(CSc2nnc(-c3cc4c(s3)-c3ccccc3CC4)o2)cc1 | 7.4 | -0.5 | -8.0 | -2.1 | 47.1 | 12.8
CC1=NC(=O)C(N=Nc2cccc(O)c2)N1c1ccccc1 (stereo unspecified) | -12.2 | 1.3 | 7.2 | 0.0 | ? | -21.8
c1cc2c3c(cccc3c1)C(N1CCCCC1)=N2 | ? | -0.6 | -6.0 | -5.9 | -15.6 | -24.2
COc1cc2nc(CN(C)Cc3ccc(SC)cc3)[nH]c(=O)c2cc1OC | -17.2 | . | . | ? | 3.9 | 18.8
CC(NCCO)C(=O)C12CC3CC(CC(C3)C1)C2 (stereo unspecified) | -15.2 | 2.9 | -7.6 | -27.5 | 0.9 | -8.1
Cc1c(Cl)cccc1NC(=S)NCc1ccccc1 | 2.1 | 0.4 | 18.1 | . | -5.0 | -2.4
C=CCNC(=S)NNC(=O)c1cccn(Cc2cccc(Cl)c2)c1=O | -7.6 | 0.1 | -11.0 | 8.6 | -19.2 | -24.7
Cc1nn(CC(=O)NC2CC2)c(C)c1S(=O)(=O)N(C)C | -13.6 | -0.4 | -15.3 | . | 10.9 | 3.3
CCCn1c(=S)[nH]c2cc(C(=O)N3CCN(C(=O)OCC)CC3)ccc2c1=O | -6.4 | -0.8 | 3.9 | 21.8 | -0.7 | 0.5
CCOC(=O)c1[nH]c(C)c(C(=O)Nc2ccccc2C)c1C | -1.6 | 2.1 | 20.2 | 10.1 | 2.4 | -28.1
Cc1cc(NC(=O)CN2CCN(S(=O)(=O)c3ccc(Cl)cc3)CC2)no1 | 0.2 | 1.6 | -6.0 | -1.0 | 5.4 | 11.0
Cc1cc(C(=O)N/N=C/c2ccc(-c3cccc(Cl)c3Cl)o2)n[nH]1 | -8.6 | 0.1 | 3.1 | 25.8 | -18.2 | -21.3
COc1ccc(C(O)c2nc(-c3ccncc3)cs2)cc1 (stereo unspecified) | -7.7 | 0.5 | . | . | 14.8 | -12.3
Fc1ccccc1-c1nc(NCC2CC2)nc2ccsc12 | -1.2 | 0.8 | 17.8 | . | 56.1 | 55.2
COc1ccc(NC(=S)NCc2ccc(F)cc2)c(OC)c1 | -19.7 | -0.2 | -8.4 | 16.0 | -0.9 | .
Cc1cc(C)c(S(=O)(=O)Nc2ccc(C(N)=O)cc2)c(C)c1 | -7.1 | 1.4 | -0.8 | -10.6 | 3.7 | 4.8
O=C(CSc1nnc(-c2ccncc2)n1Cc1ccco1)N1c2ccccc2Sc2ccc(Cl)cc21 | -16.1 | -0.1 | 8.6 | 14.9 | -2.3 | -5.5
CSc1nnc(C(C)c2ncc(C(F)(F)F)cc2Cl)n1C (stereo unspecified) | 1.0 | 2.4 | -24.2 | -3.1 | 12.3 | 0.0
COc1cc(/C=C/C(=O)OCC(=O)NC(=O)C2COc3ccccc3O2)ccc1OC(F)F (stereo unspecified) | -1.7 | 1.8 | 26.0 | . | -4.0 | 2.4
COC(=O)[C@]1(C)N[C@H](CN(C)C(=O)Nc2ccc(C)cc2)[C@@H]2C(=O)N(C)C(=O)[C@@H]21 | -3.9 | 0.7 | 7.4 | . | 8.7 | 6.4
CC(Sc1nnc(-c2ccco2)n1-c1ccccc1)C(=O)NCC1CCCO1 (stereo unspecified) | -2.3 | 3.0 | 9.5 | -2.6 | 7.0 | -4.1
CC(CCc1ccccc1)NC(=O)/C=C/c1ccc(Cl)cc1 (stereo unspecified) | -7.5 | -0.1 | 34.9 | -18.4 | 3.9 | 10.0
CC(=O)N(CCc1ccccc1C)Cc1cc2cc(C)ccc2[nH]c1=O | -3.0 | 0.7 | -12.9 | -25.8 | 5.1 | 6.0

Assay outcomes: PubChem BioAssay, National Center for Advancing Translational Sciences (NCATS)
